Screening data as filed in PubChem.
PrP 5UTR inh: inhibition of PrP 5' UTR reporter expression. cell-based PrP 5' UTR mRNA reporter, plate reader. inhibition, % (no concentration beside the values). 0.35% of 340,000 active;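 active = every replicate at 50% or more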;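 also: 0 = median of the neutral control wells; tested in H4 reporter cells; numbers are from one replicate; inactives centre near -14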
Sa RN4220 lethal: growth inhibition of S. aureus RN4220, primary screen, OD600; 0.33% of 330,000 active; inhibition, % (concentration not given with the values); 16 h; AID 1259311, 2017;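 active = z-score of -3 or lower and OD600 up to 0.18 on both plates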;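 also: plate controls were untreated cells for no effect and reference antibiotic for full effect; stock transfer was 100 nL into about 80 µL; one replicate is shown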
BJeLR lethal: MLPCN primary cell-based screen for lethality selective to Ras in HRASV12 cells; BJeLR (HRASV12) viability, CellTiter-Glo ATP luminescence, 48 h; reference of the scale not given here; inhibition, % (concentration not given with the values); 0.17% of 300,000 active;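 active = replicate mean above 50%; inconclusive = above 50% but judged a plate artefact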;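 also: 50 nL library stock added to about 25 µL; numbers are from one replicate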
Bead autofluor: compound fluorescence in toxin protease inhibitor counterscreen | compound autofluorescence counterscreen, microsphere flow cytometry; stronger effect = higher value | fluorescence intensity (no concentration beside the values) | 3.1% of 360,000 active;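 active = at least 3 SD above the mean of all compounds, about 16000 in these data; inconclusive = too few beads counted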;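 also: 100 nL of 1 mM stock went into each well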
ugtP null kill: growth inhibition of ugtP-null S. aureus, primary screen, RN4220 ugtP deletion, OD600; 16 h; some inactives read as strong as hits; growth inhibition, % (concentration not given with the values); 0.54% of 330,000 active;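 active = z-score under -3 and OD600 up to 0.15 on both plates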;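 also: plate controls were untreated wells for no effect and antibiotic for full effect; wells of about 80 µL received 100 nL stock; the first replicate is given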
Mtb hypoxia inh: PubChem AID 1159583; M. tuberculosis hypoxia-regulated fluorescent reporter, fluorescence; fluorescence inhibition, % (concentration not given with the values); 0.1% of 300,000 active;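 active = 35 to 45% if threefold the growth effect, above 45% if 1.5-fold the growth effect; inactive = the rest, general growth blockers included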;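 also: wells of about 50 µL received 100 nL stock; 0% = vehicle wells and 100% = reference inhibitor wells; whole bacteria with a GFP reporter of the hypoxia response; strong numbers were not always called active; many hits fall short of the cut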
Mtb hypoxia inh growth: recorded beside Mtb hypoxia inh, whose call it bears; growth inhibition, %; measured here: M. tuberculosis growth (absorbance);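 0% = vehicle and 100% = reference antibiotic; read after six days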
The depositor's hits bear a star; ? = inconclusive; nt = not tested or not shown.

structure | PrP 5UTR inh | Sa RN4220 lethal | BJeLR lethal | Bead autofluor | ugtP null kill | Mtb hypoxia inh | Mtb hypoxia inh growth
COc1ccc(NC(=O)CN2CCN(c3ccc(F)cc3)CC2)cc1 | -21 | 0.6 | 5 | 2940 | 19 | -1 | -13
Cc1nnc2n(-c3ccccc3)c(=O)c3c4c(sc3n12)CC(C)CC4 (configuration not stated) | -15 | 2.7 | 8 | 18626* | 8 | 17 | 11
C=CCNc1nc(NC(C)(C)CO)nc(OCC)n1 | -2 | 4.9 | 6 | ? | 3 | 4 | 4
CCCCC(CC)CNC(=O)C(Cc1ccccc1)NS(=O)(=O)c1ccc2c(c1)CCC(=O)N2 (configuration not stated) | -5 | -1.4 | 0 | 5173 | 2 | -1 | 5
Cc1ccc(C(c2nnnn2CCC(C)C)N2CCN(C)CC2)cc1 (configuration not stated) | -21 | -0.6 | -8 | 3554 | -1 | nt | nt
Cc1cc(C)n2nc(SCC(=O)N(CC(C)C)c3c(N)n(CC(C)C)c(=O)[nH]c3=O)nc2n1 | -27 | 0.7 | 1 | 4682 | 5 | 5 | -1
Cc1nc2c(C(=O)NCCC3=CCCCC3)c[nH]n2c(=O)c1Cl | 1 | 0.6 | 5 | 23190* | 0 | 2 | -2
CCc1ccc(CN2CCN(C(=O)c3ccco3)CC2)cc1 | 0 | -1.5 | 8 | 3451 | 1 | 4 | 2
Cc1ccsc1/C=N/NC(=O)c1ccncc1 | -6 | nt | 9 | 4273 | nt | nt | nt
COC(=O)NNC(=O)c1ccccc1OC | -5 | 5.5 | 9 | 4566 | 9 | 6 | 11
O=C(NNC(=O)c1ccc(-n2cncn2)c([N+](=O)[O-])c1)c1ccccc1 | -3 | 2.4 | nt | 8112 | 1 | -7 | 0
O=C(c1cccnc1)N1c2ccccc2Sc2ccccc21 | 0 | 3.2 | 2 | 4735 | 3 | 12 | 1
CSc1ccc(C2=CC(=O)CC(c3ccc(Cl)cc3)C2)cc1 (configuration not stated) | nt | -4.9 | nt | nt | 11 | 12 | 0
O=C(CNCc1ccco1)Nc1ccccc1-n1cccc1 | -23 | 4.7 | 7 | 10541 | 2 | 6 | 11
Cc1cc(C)n(-c2nc3ccccc3c3nc(C)nn23)n1 | -16 | 0.0 | -8 | 4504 | -16 | -5 | 1
CCCn1nnc2sc3c(c2c1=O)CCC(C)C3 (configuration not stated) | -68 | 2.9 | 7 | 3476 | 4 | 2 | 3
O=NN1CCCCC1 | -8 | 1.6 | nt | 5808 | 4 | 9 | 11
CC(C)Cc1ccc(CN2CCCC(NC(=O)CCN3CCOCC3)C2)cc1 (configuration not stated) | -10 | 2.0 | 2 | 5909 | 4 | 16 | 9
CCOC(=O)C1CCCN(C(=O)C2CCN(S(=O)(=O)N3CCC4(CC3)OCCO4)CC2)C1 (configuration not stated) | -19 | 2.2 | -5 | 10596 | 6 | 10 | 7
NC(N)=NN=Cc1ccc(OCc2ccccc2)c(OCc2ccccc2)c1 | nt | 101* | nt | nt | 101* | 12 | 15
COC(=O)c1ccc(NC(=O)C(=O)N2CCCC2)cc1 | -97 | 2.6 | 7 | 2883 | 10 | nt | nt
O=C(Cc1cccc2ccccc12)N1CCCc2ccccc21 | -27 | 3.6 | -2 | 4138 | -3 | nt | nt
COc1ccc(C(=O)SC2=NCCS2)cc1 | -12 | 3.0 | 6 | 8872 | 5 | 4 | 2
Cc1ccc(N2C(=O)N3[C@H](c4ccc(Cl)cc4)[C@@H]4C(=O)N(C5CCCCC5)C(=O)[C@@H]4[C@]3(Cc3ccccc3)C2=O)cc1 | -14 | nt | -1 | 3020 | nt | nt | nt
COc1ccccc1NC(=O)c1c(N=Cc2ccccc2O)cnn1C | nt | 3.6 | 1 | nt | -1 | 4 | 6
CN(C)c1ccc2c(c1)OC(N)=C(C#N)C2c1cccc(F)c1 (configuration not stated) | 66* | -3.5 | 10 | 12123 | -6 | 6 | 8
Cc1ccccc1NC(=O)c1c(C)[nH]c(=S)c(C#N)c1-c1ccco1 | -19 | nt | -3 | 10411 | nt | nt | nt
O=C(CN1CCCCC1)NNC(=O)c1cccc(Br)c1 | -22 | -0.9 | 10 | 5473 | 7 | 6 | 2
COc1ccc(S(=O)(=O)N2CCN(C)CC2)c2ccccc12 | -2 | 0.8 | -2 | 6202 | -2 | nt | nt
CC(=O)Nc1ccc(S(=O)(=O)N2CCN=C2SCc2cccnc2)cc1 | -24 | 5.1 | -1 | 2110 | 1 | -1 | -10
Cc1ccc(C(=O)N/C(=C\c2sccc2C)C(=O)NCc2ccncc2)cc1 | -23 | -2.7 | 0 | 2548 | -4 | 3 | -4
CC(=O)c1cccc(NC(=O)CN(C)Cc2ccc(OC(F)F)cc2)c1 | -44 | 0.2 | 0 | 5543 | 3 | 4 | -8
COc1ccc(N2CCN(Cc3nc(N)nc(Nc4ccc(C)c(Cl)c4)n3)CC2)cc1 | -8 | -2.1 | 0 | 21102* | -21 | -5 | 5
Cc1ccccc1C(=O)Nc1ccnn1C1CCN(Cc2ccccn2)CC1 | -8 | 3.2 | 3 | 3893 | 8 | 0 | 1
CCOC(=O)c1sc(NC(=O)c2ccc(S(=O)(=O)N3CCCCC3)cc2)nc1-c1ccccc1 | -17 | -1.5 | 5 | 2451 | 5 | 9 | 2
CCOC(=O)C(C(=O)OCC)C(Nc1ccc(Br)cc1)c1ccccc1 (configuration not stated) | 6 | -0.8 | 2 | 9463 | -5 | -3 | -3
Cc1ccc(OCC(=O)NCCNC(=O)c2cccnc2)cc1C | -27 | -1.2 | 5 | 5748 | 4 | 19 | 13
Cc1cc(C2N=C(N)Nc3nc4ccccc4n32)c(C)n1-c1ccccc1Cl (configuration not stated) | -28 | -4.7 | 5 | 9068 | 25 | 13 | 13
CCC(=O)OCCNc1nc(-c2ccccc2)nc2ccccc12 | -19 | 0.6 | 5 | 4536 | 2 | -8 | -11
CCC(C)[C@H](NC(=O)Nc1ccc(S(N)(=O)=O)cc1)C(=O)OC (some centres not stated) | -13 | 4.9 | -3 | nt | 0 | 15 | -5
COc1cc(-n2c(C)nc3cc(C(=O)O)ccc32)cc(OC)c1OC | -26 | 7.4 | nt | 3984 | 2 | 1 | 2
CN(C)c1cccc(C(=O)Nc2nnc(Cc3ccccc3)s2)c1 | -23 | 2.2 | -1 | 4740 | -9 | 9 | 3
COc1c2c(nc3occc13)C(CCC(C)(C)O)(OC)C(O)CC2 (configuration not stated) | 15 | 2.7 | 10 | 7019 | 2 | -7 | -6
CSc1ncccc1C(=O)Nc1ccc(S(=O)(=O)Nc2nccs2)cc1 | -10 | 2.1 | -5 | 2038 | 0 | 9 | 4
CC(NC(=O)COC(=O)COc1cccc2c1OC(C)(C)C2)c1ccccc1 (configuration not stated) | -17 | 1.7 | -1 | 5806 | 5 | 6 | 3
N#C/C(=N\O)c1nc2ccccc2s1 | -17 | nt | 0 | 4524 | nt | nt | nt
COc1ccc(OC)c(NC(=O)CSC2=NN3CCCC(=O)N=C3S2)c1 | -7 | 3.0 | 1 | 5634 | 7 | 0 | -7
O=C(Nc1ccc2oc(-c3ccccc3F)nc2c1)c1cncc(Br)c1 | -31 | 2.5 | 13 | 8892 | -1 | 3 | 4
CC1CC(C)CN(CCOc2cccc3ccccc23)C1 (configuration not stated) | nt | 0.0 | -10 | 3450 | 5 | -7 | -4
Cc1cc(C)n(-c2nc3ccccc3nc2N2CCCCCC2)n1 | -14 | 12 | -10 | 3565 | -1 | nt | nt

Shown as labelled records: 2 of the compounds above
O=C(Nc1ccc2oc(-c3ccccc3F)nc2c1)c1cncc(Br)c1
  PrP 5UTR inh: -31
  Sa RN4220 lethal: 2.5
  BJeLR lethal: 13
  Bead autofluor: 8892
  ugtP null kill: -1
  Mtb hypoxia inh: 3
  Mtb hypoxia inh growth: 4
CC1CC(C)CN(CCOc2cccc3ccccc23)C1 (configuration not stated)
  PrP 5UTR inh: nt
  Sa RN4220 lethal: 0.0
  BJeLR lethal: -10
  Bead autofluor: 3450
  ugtP null kill: 5
  Mtb hypoxia inh: -7
  Mtb hypoxia inh growth: -4

For convenience, some entries already given:
structure | PrP 5UTR inh | Sa RN4220 lethal | BJeLR lethal | Bead autofluor | ugtP null kill | Mtb hypoxia inh | Mtb hypoxia inh growth
COc1cc(-n2c(C)nc3cc(C(=O)O)ccc32)cc(OC)c1OC | -26 | 7.4 | nt | 3984 | 2 | 1 | 2
CN(C)c1cccc(C(=O)Nc2nnc(Cc3ccccc3)s2)c1 | -23 | 2.2 | -1 | 4740 | -9 | 9 | 3
COc1c2c(nc3occc13)C(CCC(C)(C)O)(OC)C(O)CC2 (configuration not stated) | 15 | 2.7 | 10 | 7019 | 2 | -7 | -6
CSc1ncccc1C(=O)Nc1ccc(S(=O)(=O)Nc2nccs2)cc1 | -10 | 2.1 | -5 | 2038 | 0 | 9 | 4
CC(NC(=O)COC(=O)COc1cccc2c1OC(C)(C)C2)c1ccccc1 (configuration not stated) | -17 | 1.7 | -1 | 5806 | 5 | 6 | 3
N#C/C(=N\O)c1nc2ccccc2s1 | -17 | nt | 0 | 4524 | nt | nt | nt
COc1ccc(OC)c(NC(=O)CSC2=NN3CCCC(=O)N=C3S2)c1 | -7 | 3.0 | 1 | 5634 | 7 | 0 | -7

Additional structures:
structure | PrP 5UTR inh | Sa RN4220 lethal | BJeLR lethal | Bead autofluor | ugtP null kill | Mtb hypoxia inh | Mtb hypoxia inh growth
O=C(c1cc(=O)[nH]c2ccccc12)N1CC=C(c2ccccc2)CC1 | -16 | -2.2 | -2 | 4738 | 12 | -8 | -12
CC(=O)c1ccc(NC(=O)C(C)OC(=O)/C=C/c2ccco2)cc1 (configuration not stated) | -13 | 5.1 | nt | 4128 | 0 | 16 | 8
C(=N\N1CCOCC1)/c1cn(-c2ccccc2)nc1-c1ccccc1 | -22 | nt | 0 | 2089 | nt | nt | nt
Cc1ccc(S(=O)(=O)Nc2nc3ccccc3s2)cc1 | -9 | 12 | -5 | 4607 | -9 | 0 | -2
O=C(CN1CCC(NC(=O)c2ccccc2Cl)CC1)NCc1ccco1 | -4 | -0.7 | 0 | 2227 | 6 | 2 | 7
CCCCCNC(=O)c1ccc2c(=O)n(CCOC)c(=O)[nH]c2c1 | -27 | 1.0 | -3 | 3550 | 4 | 6 | 12
Cc1ccsc1C(=O)NCCc1nnc2ccccn12 | -32 | -0.2 | 4 | 5016 | -10 | 5 | 2
COc1cc(C(=O)NN=Cc2ccc(N(CCCl)CCCl)cc2)cc(OC)c1OC | -12 | 3.5 | nt | 4245 | 1 | -1 | 7
CC(=O)c1cccc(NC(=O)NC2CC(=O)N(c3ccc4c(c3)OCCO4)C2)c1 (configuration not stated) | -20 | -2.4 | -1 | 4829 | 8 | 10 | 11
CCC(NC(=O)CSc1nnnn1C1CC1)c1ccc(Br)cc1 (configuration not stated) | -21 | 2.8 | nt | 3848 | 2 | 5 | 4
Cc1cccc(NC(=O)c2sccc2-n2cccc2)c1C | -9 | 3.9 | -3 | 3802 | -3 | nt | nt
Cc1ccc(NC(=O)N2CCC(NC(=O)c3cccc(C)c3)CC2)cc1 | 1 | 6.1 | 5 | 6098 | 18 | 1 | -2
Cc1nn2c3cc(N4CCOCC4)ccc3nc2c2ccccc12 | nt | 2.4 | -5 | nt | -3 | -55 | 10
CC(=NOC(=O)c1ccc(F)cc1)c1ccc(C)cc1 | nt | 8.6 | nt | nt | 1 | 9 | -1
COc1ccc(-c2onc3ccc(Cl)cc23)cc1 | -25 | 12 | 12 | 4333 | -6 | nt | nt
COc1ccc(N2CCN(C(=O)CSc3nnc4nc(C)cc(C)n34)CC2)cc1 | 0 | -0.1 | -22 | 9832 | 3 | 4 | 2
CC1CCCN(CC(=O)Nc2ccc(S(=O)(=O)N3CCCCCC3)cc2)C1 (configuration not stated) | -5 | 3.5 | -2 | 16175* | 4 | 0 | 3
Cc1cccc(N2CCN(Cc3ccc4c(c3)OCO4)CC2)c1C | -19 | -2.6 | 0 | 3995 | 27 | 2 | 12
CN(CN=C(N)N[N+](=O)[O-])S(=O)(=O)c1ccccc1 | nt | 2.0 | nt | nt | 2 | -4 | 3
O=C(c1cc(-c2ccc(F)cc2)on1)N1CCCCCC1 | -58 | 5.7 | 2 | 4122 | 4 | 10 | 7
